# High-throughput results as filed in PubChem.
# CBX7 AlphaScr: blocks human CBX7 binding to H3K27me3 peptide. O95931. AlphaScreen His6-CBX7 / biotin-H3K27me3 peptide binding; stronger effect = lower value. normalised signal (fraction of DMSO) (concentration not given with the values). 66,000 tested, 1.1% active; in the data active = normalised signal below about 0.5;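 also: 100 nL library stock added to about 20 µL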
# Target sequence (O95931 whole entry, looked up): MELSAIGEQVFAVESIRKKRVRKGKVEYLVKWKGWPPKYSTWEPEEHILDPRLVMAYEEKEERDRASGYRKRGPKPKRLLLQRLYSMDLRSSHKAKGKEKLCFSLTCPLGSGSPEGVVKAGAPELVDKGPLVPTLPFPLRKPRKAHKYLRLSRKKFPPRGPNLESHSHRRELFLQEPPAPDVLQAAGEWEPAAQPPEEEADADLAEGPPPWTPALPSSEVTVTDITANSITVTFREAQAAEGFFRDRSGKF
# CBX7 AlphaScr z-score: second read-out of CBX7 AlphaScr, no call of its own (marks repeat the call); z-score; measured here: z-score of CBX7 signal; some inactives read as strong as hits; reference of the scale not given here;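 same signal on another scale; lower means less binding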
# The depositor's hits bear a star; & = joins results of further samples.
SMILES,CBX7 AlphaScr,CBX7 AlphaScr z-score
Fc1ccc(CSc2nc(Nc3ccc4c(c3)OCO4)c3ccccc3n2)cc1,0.82,-0.51
COc1ccccc1NC(=O)c1c(NC(=O)c2cccs2)sc(-c2ccccc2)c1C,1,0.03
COc1ccc(C2C(=O)N(C3CCCCCC3)CC(=O)N2Cc2ccccc2)cc1 (centres undefined),1.3,1.3
Cc1cc(C)cc(CC2CC(=O)N(c3ccccc3)C2=O)c1 (centres undefined),1.2,1.6
COc1ccccc1CNC(=O)C1CCCN(Cc2nc(-c3ccc(Cl)cc3)oc2C)C1 (centres undefined),0.98,-1
CCOC(=O)c1cnc2cc(Cl)c(OC)cc2c1Nc1ccc(C)cc1Br,1,0.029
CCOC(=O)c1cnc2c(Cl)cccc2c1Nc1cccc(C(=O)OC)c1,1,0.28
COc1ccc(-c2nc(CSCC(=O)NCCN3CCOCC3)c(C)o2)cc1OC,1.3,2.7
COC(=O)c1c[nH]n2c(NC3CCC(C)CC3)c(-c3cccc(C)c3)nc12 (centres undefined),0.24*,-0.86*
Cc1ccc2nc(Nc3ccccc3Cl)nc(-c3ccccc3)c2c1,2.6,26
O=C(NCCCN1CCCC1)c1cc2c(s1)-c1ccccc1OC2,1,2.3
Cc1cccc(Nc2nc(-c3ccc(Br)cc3)cs2)c1,0.72,-4.5
Cc1ccc(S(=O)(=O)C2(C(=O)N3CCN(c4cc(C)ccc4C)CC3)CC2)cc1,1,0.7
COC(CNC(=O)CN1CCN(Cc2cccc(C)c2)C1=O)OC,1,0.23
CCN(CC)S(=O)(=O)c1ccc(C(=O)Nc2c3c(nn2-c2ccc(C)cc2)CSC3)cc1,1,0.68
O=C1Nc2cc(C(=O)N3CCOCC3)ccc2SC1N1CCOCC1 (centres undefined),1,1.2
O=C1CN(C(=O)c2c(F)cccc2F)C(c2ccccc2)c2cc(Cl)ccc2N1 (centres undefined),0.62,-3.6
CCCc1cc(C(=O)NCc2ccccc2)no1,1.1,1.2
Fc1ccc(Nc2c3c(nc4ccc(Cl)cc24)CCC3)cc1,1.1,0.35
O=C(CN1C(=O)COc2ccc(S(=O)(=O)N3CCOCC3)cc21)NCCc1ccc(Cl)cc1,0.99,-0.14
CCc1ccc(NS(=O)(=O)c2ccc3[nH]c(=O)[nH]c3c2)cc1,0.98,-0.018
CNC(=O)CCn1nc(-c2ccccc2)c2ccccc2c1=O,1,0.079
Cc1oc(-c2cccc(Cl)c2)nc1CN1CCCC(C(=O)NCC2CCCO2)C1 (centres undefined),1.1,1.6
CCN(Cc1ccccc1)S(=O)(=O)c1ccc(C(=O)Nc2nnc(-c3cccc(OC)c3)o2)cc1,0.96,-1
CC(C)CCn1c(C2CC(=O)N(c3ccccc3F)C2)nc2ccccc21 (centres undefined),1.1,0.44
CCOc1ccc(NS(=O)(=O)c2ccc3[nH]cc(C(=O)N4CCCCCC4)c(=O)c3c2)cc1,0.9,-0.44
CC(C)CCNC(=O)c1ccc2c(c1)N(Cc1ccc(F)cc1)C(=O)c1ccccc1S2(=O)=O,1,0.54
CC(C)N1CCc2c(sc(NC(=O)c3ccc(S(=O)(=O)N4CCCC4)cc3)c2C(N)=O)C1,0.98,-0.85
O=C(COc1ccc(Cl)cc1)NC(c1ccccc1)c1c(O)ccc2ccccc12 (centres undefined),1,0.044
O=C(CN1CCN(Cc2ccc(Cl)cc2)C1=O)NCCCN1CCOCC1,0.98,-0.29
CCCN1CCCc2cc(CN(CCCOC)C(=O)Nc3ccc(C)c(C)c3)ccc21,0.64,-5.9
CCC1CCCCN1S(=O)(=O)c1ccc(NC(=O)c2oc3ccccc3c2C)cc1 (centres undefined),0.93,-0.18
CCOc1ccc2nc(N3CCCC(C(=O)NC(C)C45CC6CC(CC(C6)C4)C5)C3)sc2c1 (centres undefined),0.95,-0.91
COc1ccc(NS(=O)(=O)c2ccc(C3CNC(=O)C3)cc2)cc1 (centres undefined),1.1,1.2
COc1ccc2nc(N3CCC(C(=O)NCc4ccccc4)CC3)sc2c1,1.1,1.3
COc1ccc(NC(=O)COc2ccc(-c3nn(C)c(=O)c4ccccc34)cc2)cc1,1,0.91
Cc1ccc(CNC(=O)CCCn2c(=O)c3sccc3n(Cc3cccc(C)c3)c2=O)cc1,1,0.46
CCOC(=O)c1nnn(-c2nonc2N)c1CN1CCN(C(c2ccccc2)c2ccccc2)CC1,0.89,-4.4
CCOC(=O)N1CCC(Nc2c(NC(C)(C)C)c(=O)c2=O)CC1,0.81,-2.2
COc1ccc(N2Cc3cccc(C(=O)Nc4cc(C)ccc4C)c3C2=O)cc1,0.82,-4.4
CC1CCCCC1NS(=O)(=O)c1ccc2c(c1)CCN2C(=O)C1CCC1 (centres undefined),0.94,-2.1
O=C(NC1CCCCC1)c1cc2c(s1)-c1ccccc1OC2,1.1,3.3
CCN1C(=O)c2ccccc2Sc2ccc(C(=O)NCc3ccccn3)cc21,0.63,-6.7
Clc1cc(Br)ccc1OCc1nc(-c2ccccc2)no1,1.8,13
O=C(NCc1ccc(F)cc1)c1ccc2nc(-c3cccs3)c(-c3cccs3)nc2c1,0.98,-0.016
CC(C)CNc1ncnc2ccc(Br)cc12,1.1,1.3
CCC1=Nc2cc(C(=O)NCCc3ccc(Cl)cc3)ccc2Sc2ccc(C)cc21,1,0.4
Cc1ccc2c(c1)-c1c(cnn1CC(=O)NCCN(C)C)CO2,1,-0.082
Cc1cc(=O)[nH]c(SCc2ccccc2)n1,1.1,2.3
Cc1cc(C)cc(NS(=O)(=O)c2ccc3[nH]cc(C(=O)NCc4cccs4)c(=O)c3c2)c1,1.4,1.9
O=C(NCCN1CCCC1)c1ccc2c(c1)N(Cc1ccccc1Cl)C(=O)c1ccccc1S2,1,0.3
COc1ccc2nc(NC(=O)c3cccnc3)sc2c1,1.1,0.87
CC(C)OCCCNC(=O)CN1C(=O)COc2ccccc21,1.1,2.7
O=C(c1cnn(-c2ccccc2)c1-n1cccc1)N1CCC(C(=O)N2CCc3ccccc3C2)CC1,1,1.2
COCCN1Cc2cccc(C(=O)Nc3ccc4c(c3)OCO4)c2C1=O,1,0.012
Cc1ccc(OCC(=O)Nc2cccc(-c3nc4cc(C)cc(C)c4o3)c2)c(C)c1,0.95,-0.9
CCOc1ccc(N2C(=O)CC(N3CCN(Cc4ccccc4)CC3)C2=O)cc1 (centres undefined),1,0.28
COc1ccc(NC(=O)CNC(=O)Cn2ccc3ccccc3c2=O)cc1Cl,1.1,3.1
CN1C(=O)c2ccccc2Sc2ccc(C(=O)O)cc21,1.1,1.7
O=C(c1n[nH]c(=O)c2ccccc12)N1CCN(c2ccccc2)CC1,1.1,0.64

# The results go on.
SMILES,CBX7 AlphaScr,CBX7 AlphaScr z-score
COc1ccc(CC(=O)N2CC(=O)Nc3ccc(F)cc3C2c2ccccc2)cc1 (centres undefined),0.9,-0.21
COc1cccc(N2CCN(C(=O)CCc3c(C)nc4ncnn4c3C)CC2)c1,1,0.9
COc1ccc(OC)c(C2=NOC(C(=O)Nc3cccnc3Cl)C2)c1 (centres undefined),1,-0.015
Cc1nc2sc(C(c3ccc(F)cc3)N3CCN(c4ccccc4F)CC3)c(O)n2n1 (centres undefined),0.94,-2.7
Cc1cc(C)cc(-n2ccnc2SCC(=O)Nc2ccc(C)c(Cl)c2)c1,0.96,-0.69
COc1cccc(Nc2ncc(C(=O)O)c3ccccc23)c1,0.98,-0.081
COC(=O)c1cc2ccsc2n1CC(=O)Nc1cc(Cl)ccc1OC,0.96,-1.2
O=C(COc1ccccc1)Nc1c2c(nn1-c1ccc(Cl)cc1)CS(=O)(=O)C2,0.97,-0.29
Cn1c2ccccc2c2c(C(=O)N3CCN(c4ccccc4)CC3)cn(C3CCCC3)c(=O)c21,0.84,-4.6
COc1ccccc1NC(=O)CSc1oc(-c2ccccc2)nc1S(=O)(=O)c1ccc(F)cc1,0.96,-0.48
Cc1nc2ccccc2n1CC(O)Cn1c(C(F)(F)F)nc2ccccc21 (centres undefined),1,0.56
O=C(NC1CCN(Cc2ccccc2)CC1)c1cccc(NC2=NC3CS(=O)(=O)CC3S2)c1 (centres undefined),1.1,1.2
CCc1ccc(CNC(=O)c2cc(=O)[nH]c3ccc(S(=O)(=O)N4CCCCC4)cc23)cc1,1.1,1.1
CCN(CC)CCCC(C)Nc1nc(/C=C/c2ccccc2)nc2cc(Cl)ccc12 (centres undefined),2.5,16
O=C(O)c1cccc(Nc2nc(-c3ccncc3)cs2)c1,0.97,-0.62
CC(=O)N1CCc2cc(S(=O)(=O)N3CCc4ccccc4C3)ccc21,1.1,1.4
COc1ccccc1OCc1nc(-c2ccccc2)no1,1.2,0.24
CCN1CCN(CCCNC(=O)c2ccc3c(c2)NC(=O)c2ccccc2S3)CC1,1.1,0.93
COc1ccc(N2C(=O)C3C4C=CC(C4=C4CCCC4)C3C2=O)cc1 (centres undefined),1,1.6
COc1cc2c(cc1OC)-c1nnc(-c3ccc(Br)cc3)n1C(C)(C)C2,0.99,-0.23
CCOc1ccc(CCNC(=O)CCc2c(C)nc3c(-c4ccccc4)c(C)nn3c2C)cc1OCC,1.1,1.9
Cc1ccc(OCc2nc(-c3ccc(Cl)cc3)no2)cc1,1.1,1.9
CC1CCCC(NC(=O)Cc2cn(C)c3ccccc23)C1C (centres undefined),0.74,-5.6
COC(=O)c1c[nH]n2c(=O)c(Cc3ccccc3Cl)c(C)nc12,1.1,2.8
COc1ccc2c(c1)CCc1c(C(=O)Nc3ccc(C)cc3)noc1-2,1,0.16
COCC(C)NC(=O)c1cc(-c2ccco2)on1 (centres undefined),0.94,-1.6
CCOc1ccc(NC2c3ncccc3C(=O)N2Cc2ccc(F)cc2)cc1 (centres undefined),0.5*,-6.5*
O=C(NCCN1CCCC1)c1ccc2c(c1)N(Cc1cccc(Cl)c1)C(=O)c1ccccc1S2=O (centres undefined),1.1,1.3
Cc1cccc(NC(=O)c2cc3sccc3n2Cc2ccc(Cl)cc2)n1,0.96,-1
Cn1c(C(=O)N2CCC(C(=O)NCCN3CCC(Cc4ccccc4)CC3)CC2)cc2sccc21,0.91,-1.6
Cc1ccc(NC(=O)C2CCN(S(=O)(=O)c3cccnc3)CC2)cc1C,1,1.6
CCOCCCNS(=O)(=O)c1ccc2c(c1)CCN2C(C)=O,0.81,-0.77
Nc1nonc1-c1nc2ccccc2n1CC(=O)O,1.1,2
CC(=O)N1CCc2cc(S(=O)(=O)NCCN3CCCCCC3)ccc21,0.89,-0.44
COc1ccc(-n2nnc3c(=O)n(CC(=O)Nc4cccc(F)c4)cnc32)cc1,0.92,-1.5
O=C(NCc1cccnc1)c1nn2c(C(F)(F)F)cc(-c3ccc(F)cc3)nc2c1Cl,0.99,-0.07
Cc1ccc(F)c(NC(=O)c2c(-c3ccccc3)noc2C)c1,1.1,0.55
COc1cc2c(C(=O)N3CCN(Cc4ccccc4)CC3)cn(CC(C)C)c(=O)c2cc1OC,1,0.99
FC(F)(F)c1cccc(-c2noc(/C=C/c3ccccc3Cl)n2)c1,1.1,2.2
Cc1nc2cc(-c3cccc(F)c3)nn2c(C)c1CCC(=O)NC1CCCCC1,0.97,-0.52
CN1CCN(c2ccc(Nc3ccnc4ccccc34)cc2)CC1,1.1&1,0.76&-0.065
O=C(CCc1cn(Cc2ccccc2)c2ccccc12)Nc1n[nH]c(C(F)(F)F)n1,0.98,-0.95
Cc1ccc(NC2c3ccccc3C(=O)N2c2ccccc2C)c(Cl)c1 (centres undefined),0.92,-1.5
Cc1ccc(S(=O)(=O)N2CCC(C(=O)NCc3cccnc3)CC2)cc1,1,0.69
CCc1ccc2nc(N3CCC(C(=O)NCCN4CCCCC4C)CC3)sc2c1 (centres undefined),1.1,2.4
COc1ccc(NC(=O)c2cc(-c3cccc(OC)c3)on2)cc1,1,0.005
COc1ccc(-c2cc3nc(C)c(CCC(=O)Nc4cc(F)ccc4F)c(C)n3n2)c(OC)c1,0.99,-0.13
CCOC(=O)N1CCC(NC(=O)C2=CCN(S(=O)(=O)c3ccccc3)CC2)CC1,1,0.75
COc1ccc(-c2cc(C(F)(F)F)n3nc(C(=O)Nc4ccc(F)c(Cl)c4)c(Cl)c3n2)cc1OC,0.96,-0.57
N#Cc1cccc(Nc2c3c(nc4cc(Cl)ccc24)CCCC3)c1,0.9,-1.5
COc1ccc(-c2noc(CCC(=O)NCc3ccc(F)cc3)n2)cc1,0.94,-0.057
O=C(NC1CCCC1)C1CC(=O)N(c2ccc(F)c(Cl)c2)C1 (centres undefined),1,0.18
Cc1cc(=O)c2ccc3oc4ccccc4c3c2[nH]1,0.96,-0.48

# Some of the compounds tested. The share of hits here may be higher or lower than overall.
